Assay outcomes as filed in PubChem BioAssay.
Biofilm kill mix = mixtures killing C. albicans biofilm. C. albicans biofilm persisters + clotrimazole, fluorescence viability; primary screen in compound mixtures of four per well. inhibition, % at 7.6 µM. 0.02% of 120,000 active. AID 1242;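 active = inhibition above 30.3% in the primary screen of four-compound pools, then above 30% when the compound was retested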;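 note: compounds exposed to preformed 24 h biofilms for 48 h; the number belongs to the whole pool; some results filed as inactive read as strong as hits; inactives centre near 12; 0% = biofilm with clotrimazole alone and 100% = kill control; retested singly at about 60 µM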
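System: C. albicans CAF4-2 wild-type biofilms; Medium: RPMI/MOPS medium, pH 7.0; Reagent: Clotrimazole, 50 µg/mL; Times: biofilm formation 24 h, compound exposure 48 h, 37 °C; Detection: 2-h Alamar Blue fluorescence, 535/590 nm excitation/emission; Evaluation: percent inhibition of biofilm viability.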
Active calls of the source: *. Only part of the results is shown; rates above refer to the full screens.

A first look (seven entries):
SMILES | Biofilm kill mix
CCOC(=O)C1(Cc2ccc(OC)cc2)CCN(C(=O)c2sc(C)nc2C)CC1 | 10
COc1ccc(C(=O)Nc2cccc(-c3ccc4nncn4n3)c2)cc1OC | 6
Cc1[nH]ccc(=O)c1Oc1ncc(C(F)(F)F)cc1Cl | 5
CCSCc1nc2ccccn2c1Br | 17
Cn1cnnc1SCC(=O)Nc1ccccc1Oc1ccccc1 | 3
Oc1ccccc1C(Nc1nccs1)c1ccc2cccnc2c1O (centres undefined) | 16
O=Cc1ccc(OCC(=O)N2CCOCC2)cc1 | 16

Results, from the start:
SMILES | Biofilm kill mix
CCOC(=O)C1(Cc2ccc(OC)cc2)CCN(C(=O)c2sc(C)nc2C)CC1 | 10
COc1ccc(C(=O)Nc2cccc(-c3ccc4nncn4n3)c2)cc1OC | 6
Cc1[nH]ccc(=O)c1Oc1ncc(C(F)(F)F)cc1Cl | 5
CCSCc1nc2ccccn2c1Br | 17
Cn1cnnc1SCC(=O)Nc1ccccc1Oc1ccccc1 | 3
Oc1ccccc1C(Nc1nccs1)c1ccc2cccnc2c1O (centres undefined) | 16
O=Cc1ccc(OCC(=O)N2CCOCC2)cc1 | 16
O=C(Nc1cccc(-c2cn3cccnc3n2)c1)Nc1ccccc1F | -1
Cc1cn(C(=O)c2ccccc2)c(=S)n1-c1ccc(Cl)cc1 | 13
COc1ccc(CCNC(=O)c2cc(C3CC3)on2)cc1OC | 22
Cc1onc(-c2ccccc2)c1C(=O)N=C(N)c1ccc(Cl)cc1 | 21
O=C(c1ccccc1)C(C(=O)N1CCCCC1)n1ccccc1=O (centres undefined) | 8
CC1CN(c2ccc(Cl)nn2)CC(C)O1 (centres undefined) | 18
CN(/C=C/C(=C\C=[N+](C)c1ccccc1)OCCCS(=O)(=O)[O-])c1ccccc1 | 24
CCC1CCCCN1C(=O)Cn1nc([N+](=O)[O-])c(Cl)c1C (centres undefined) | 7
COc1ccccc1NC(=S)Nc1ccccn1 | 14
Cc1ccc(S(=O)(=O)N(C)C)cc1-n1c(SCC(=O)Nc2ccccc2)nc2ccccc2c1=O | -2
c1ccc2c(c1)nc(N1CCCCCC1)c1ccccc12 | 4
Cc1ccccc1NC(=S)NC1CCN(Cc2ccccc2)CC1 | 7
Cc1oc(S(=O)(=O)N2CCCC2)cc1C(=O)Nc1ccccc1 | 13
O=C(N/N=C/c1ccc(-c2ccccc2[N+](=O)[O-])o1)[C@H]1C[C@@H]1c1ccccc1 | 13
CCCN1CCC(=NNc2ccc(C(=O)O)cc2)CC1 | -2
CCc1cc2c(N=Nc3c(O)[nH]c4ccccc34)ncnc2s1 | 14
Cn1ncc([N+](=O)[O-])c1C(=O)Nc1ccc(-c2nc3ccccc3o2)cc1 | 17
COc1ccc(CN2C(=O)c3ccccc3C2=O)cc1C(=O)OCC(=O)NC1CCCCC1 | 21
CC(=NCCc1c(C)[nH]c2ccc(C)cc12)C1=C(O)CC(c2ccccc2)CC1=O (centres undefined) | 7
Cc1ccc(C(=O)n2c(-c3ccccc3)cnc2SCC(=O)Nc2ccccc2)cc1 | 15
Cc1cc(C)cc(NS(=O)(=O)c2ccc3[nH]cc(C(=O)N4CCc5ccccc54)c(=O)c3c2)c1 | 3
CC(NC(=O)C12CC3CC(CC(C3)C1)C2)C(=O)N/N=C/C1=C(N2CCOCC2)C(=C\c2cccc([N+](=O)[O-])c2)/CC1 (centres undefined) | 3
O=C(Cc1ccccc1)N[C@@H](Cc1ccccc1)C(=O)O | 3
CCc1ccccc1N(C(C)=O)c1nc(CCl)cs1 | 7
Cn1cc(S(=O)(=O)Nc2ccc(OC(F)(F)F)cc2)c(=O)n(C)c1=O | 17
O=C(NNS(=O)(=O)c1ccccc1)c1cccnc1 | 17
COc1ccccc1NS(=O)(=O)c1cc(NC(=O)c2ccc3ccccc3n2)ccc1Cl | 2
Cc1c(C(=S)NC(=O)C2CC2)c(=O)n(-c2ccccc2)n1C | 12
O=C(Nc1ccc(-c2cnco2)cc1)c1ccc(F)cc1F | 19
CC(C)S(=O)(=O)c1csc(NC(=O)Nc2ccc(Cl)cc2)c1Cl | 19
CCCC(=O)c1ccc(N2CCC(C)CC2)c(F)c1 | 5
COc1ccc(N2C(=O)/C(=C/c3cccs3)NC2=S)cc1 | 11
O=C(NC(=S)Nc1ccc(CN2CCOCC2)cc1)c1ccc(-c2cccc(Cl)c2)o1 | 11
COc1c(C)cc(Br)cc1C(=O)NC(=S)Nc1ccc(Cl)c(C(=O)O)c1 | 5
COc1ccc(NC(=O)C(OC(=O)c2ccc([N+](=O)[O-])o2)c2ccccc2)cc1Cl (centres undefined) | 8
Cc1nc(C)n(CC(=O)N2CCCC(C(=O)c3cccc4ccccc34)C2)n1 (centres undefined) | 4
Nc1nonc1C(=O)OCC(=O)c1ccc(Cl)cc1 | 8
Cc1ccccc1CNC(=O)c1ccccc1NS(C)(=O)=O | 7
C/C(=N\Nc1ccc([N+](=O)[O-])cc1)c1ccc(-n2nncc2C(C)(C)C)cc1 | 12
O=C1CC(c2ccc(F)cc2)c2cc3c(cc2N1)CCC3 (centres undefined) | 17
Cc1ccc(NC(=O)CN2C(=O)NC(Cc3c[nH]c4ccccc34)C2=O)cc1S(=O)(=O)N1CCCCC1 (centres undefined) | 10
COc1cc2[nH]c(=S)n(Cc3ccc(C)cc3)c(=O)c2cc1OC | 10
Cc1cc(C)n(-c2nc(N(C)C)nc(N(C)C)n2)n1 | 13

The listing continues.
SMILES | Biofilm kill mix
CC(C)(C)OC(=O)N/N=C/c1cccc([N+](=O)[O-])c1 | 13
CC(=O)n1cc([C@@H]2C=C(C(=O)N3CCOCC3)O[C@H](OCCCCO)C2)c2ccccc21 | 5
Cn1c(CN2CCOCC2)nc2cc(NC(=O)COc3ccccc3)ccc21 | 26
CSc1ccccc1NC(=O)COc1ccc(Cl)cc1C | 21
Clc1ccccc1CN1CCN(CCCc2ccccc2)CC1 | 5
C/C(=N\NC(=O)CNc1cccc2ccccc12)c1ccc(Br)s1 | 28
Cc1cccc2nc(-c3cccc(NC(=O)c4ccc(Cl)cc4)c3)cn12 | 18
Cc1ccnc2ccc(P(=O)(c3ccccc3)c3ccccc3)cc12 | -10
Cc1ccc(OCC(=O)Nc2ccc3c4c(cccc24)CC3)c(C)c1 | 3
CC(C)N1CCCC(CNC(=O)CCc2nnc(CCCCc3ccccc3)o2)C1 (centres undefined) | 23
Cc1c(Br)c([N+](=O)[O-])nn1CC(=O)NCc1ccco1 | 13
Cn1nc(C(=O)OCc2ccc(Br)cc2F)c2ccccc2c1=O | 13
Cc1nc2cc(NCc3cc([N+](=O)[O-])ccc3O)ccc2n1Cc1ccccc1 | 8
c1ccc(Cc2cc(-c3ccccc3)on2)cc1 | 13
COCc1cc(C)nc(OCC(=O)N/N=C/c2ccccc2)c1C#N | 14
S=c1nccc(-c2ccc3c(c2)CCO3)[nH]1 | 23
COc1ccc(C2=CC3=C(Br)C(=O)C(C)(O)C(=O)C3=CO2)cc1 (centres undefined) | 3
O=C(CCl)Nc1cc2[nH]c(=O)[nH]c2cc1Br | 19
N#Cc1ccccc1OCC(=O)NC(=O)NCc1ccccc1 | 22
O=C(CN1CCN(Cc2ccccc2)CC1)N1CCCCCC1 | 13
CCOC(=O)N1CCN(C(=O)C2CCN(S(=O)(=O)c3cc(C)ccc3OC)CC2)CC1 | 8
CCN(CC)CCCNc1nc(C)cc(COC)c1C#N | 8
CCC(O)C1CCN(Cc2cn(-c3ccc(OC)cc3)nc2-c2cccc(F)c2)CC1 (centres undefined) | -5
Cc1cc2cc(C)c3nnc(SCC(=O)Nc4ccc(S(=O)(=O)N5CCCCC5C)cc4)n3c2cc1C (centres undefined) | 8
CCCCn1c(-c2csc(CCC)c2)n[nH]c1=S | 14
Cc1nn(C)c(-c2n[nH]c(=S)n2-c2ccccc2)c1Cl | 8
CN(O)/C=N/C(=S)Nc1ccc(Cl)cc1Cl | 21
COc1ccc(/C=C2/SC(=O)N(CCNC(=O)CC(NC(C)=O)c3ccccc3)C2=O)cc1 (centres undefined) | 21
O=C1CN(C(=O)c2ccc(Cl)nc2)c2ccccc2N1 | -2
NS(=O)(=O)c1ccc(NC(=S)NC(=O)/C=C/c2cccs2)cc1 | -2
CN1CCN(S(=O)(=O)c2cccc(C(=O)NCc3ccccc3Cl)c2)CC1 | 13
O=S(=O)(c1cccc(-c2csc(-c3cccnc3)n2)c1)N1CCOCC1 | 13
Cc1noc(NS(=O)(=O)c2ccc(NC(=O)C(CC(C)C)N3C(=O)c4ccccc4C3=O)cc2)c1C (centres undefined) | 22
CCC1Oc2ccc(C)cc2N(CC(=O)N(Cc2ccncc2)Cc2ccco2)C1=O (centres undefined) | 8
CSc1ccccc1NC(=O)CN(c1ccccc1Br)S(C)(=O)=O | 5
COc1ccc(NC(=S)N/N=C/c2cccn2Cc2ccc(F)cc2Cl)cc1 | 2
O=C(CSc1nncn1-c1cccnc1)N(c1ccccc1)c1ccccc1 | 22
C=CCNC(=S)Nc1ccc(OC)c(S(=O)(=O)N2CCOCC2)c1 | 23
O=C(NCCCn1ccnc1)/C(=C\c1cccnc1)NC(=O)c1ccccc1Br | 12
Cc1cnn2c(C3CC3)ccnc12 | 7
O=C(O)c1cc([N+](=O)[O-])cc2c1nnn2O | 13
CC(C)CN(C)Cc1c(C(=O)N2CCc3ccccc3C2)nc2ccc(Cl)cn12 | 12
O=C(NCCn1cc(SCc2ccccc2)c2ccccc21)c1ccccc1F | 11
CCN(CC(=O)Nc1cccc(OC)c1)c1ncnc2sc(C)c(C)c12 | 17
NS(=O)(=O)c1ccc(NC(=O)COC(=O)c2cc([N+](=O)[O-])ccc2Cl)cc1 | 18
CCOc1ncccc1C(=O)N1CCN(S(=O)(=O)c2ccc(Br)cc2Cl)CC1 | 15
CN(CCC#N)C(=O)COC(=O)c1ccc2c(=O)n3c(nc2c1)CCC3 | 4
O=C1C=C(N2CCCCCC2)C2(CCCCC2)O1 | 12
CC(C)N1C(=O)N(c2ccccc2)C(C)(O)CC1(C)C (centres undefined) | 11
Cc1ccc(C)c2c1cc(C)c1nnc(SCC(=O)Nc3nc4c(s3)CCCC4)n12 | 14

Reformatted as labelled records: four of the compounds above.
CCOc1ncccc1C(=O)N1CCN(S(=O)(=O)c2ccc(Br)cc2Cl)CC1
  Biofilm kill mix: 15

CN(CCC#N)C(=O)COC(=O)c1ccc2c(=O)n3c(nc2c1)CCC3
  Biofilm kill mix: 4

O=C1C=C(N2CCCCCC2)C2(CCCCC2)O1
  Biofilm kill mix: 12

CC(C)N1C(=O)N(c2ccccc2)C(C)(O)CC1(C)C (centres undefined)
  Biofilm kill mix: 11

Next section:
SMILES | Biofilm kill mix
Cc1nc(NC(=O)CSc2nnc(N)s2)c(Cl)cc1Cl | 25
COC(=O)c1c(NC(=O)COC(=O)CNC(=O)C2CCCCC2)sc(C)c1C | 10
Cc1ccc(N2CC(=O)N(NC(=O)c3sc4nc(C)cc(C)c4c3N)CC2=O)cc1 | 27
Cc1ccc(C)c(CSc2nc(-c3ccco3)nc3c2c(=O)n(C)c(=O)n3C)c1 | 10
O=C(Nc1nnc(CCS(=O)(=O)c2ccc3ccccc3c2)s1)c1cccs1 | 7
Cn1c(N/N=C\c2cccc(O)c2)cc(=O)n(C)c1=O | 22
COc1cc(Cl)c(C)cc1NC(=O)c1ccc(S(C)(=O)=O)cc1 | -13
COc1nn(CC(=O)N2N=C(C)CC2(O)C(F)F)cc1[N+](=O)[O-] (centres undefined) | 7
O=C(Nc1ccncc1)c1sc2ccccc2c1Cl | 15
COc1ccc(Nc2nc(NC(C)(C)C)nc(N3CCOCC3)n2)c(OC)c1 | 18

Another view of 3 compounds above:
compound	Biofilm kill mix
O=S(=O)(c1cccc(-c2csc(-c3cccnc3)n2)c1)N1CCOCC1	13
Cc1noc(NS(=O)(=O)c2ccc(NC(=O)C(CC(C)C)N3C(=O)c4ccccc4C3=O)cc2)c1C (centres undefined)	22
CCC1Oc2ccc(C)cc2N(CC(=O)N(Cc2ccncc2)Cc2ccco2)C1=O (centres undefined)	8

Following part.
SMILES | Biofilm kill mix
COC(=O)C(C)Sc1nc(NCc2ccccc2)nc(N(C)C)n1 (centres undefined) | 8
Cc1ccc(-c2nnn(CC(=O)N(CC3CCCO3)C(C(=O)NC3CCCC3)c3ccc(O)cc3)n2)o1 (centres undefined) | 6
Cc1ccccc1OCCn1c(CCNC(=O)C(C)C)nc2ccccc21 | 5
S=c1[nH]cnc2scc(-c3ccc(Br)cc3)c12 | 4
CC(Sc1cccc[n+]1[O-])C(=O)Nc1ccc(Oc2ccccc2)cc1 (centres undefined) | 2
O=C(c1ccco1)N1CCN(CCCCOc2cccc3ccccc23)CC1 | -1
Cc1ccc(-n2nc(C(=O)O)c(O)cc2=O)cc1 | 6
CCCCNS(=O)(=O)c1ccc2nc(-c3cccnc3)cc(C(=O)NC(C)C)c2c1 | 5
CCCc1nc(NC(=O)c2ccccc2)nc(NC(=O)c2ccccc2)n1 | 18
COc1c(F)c(F)c(C(=O)O)c(Nc2ccc(C)cc2C)c1F | 10
Oc1cccc(CN2CCCCC2)c1 | 8
CN1CCN(c2ccccc2NC(=O)c2ccc(-c3cccc([N+](=O)[O-])c3)o2)CC1 | 21
CCN(CC)S(=O)(=O)c1ccc(/C=C/C(=O)OCC(=O)N(C(C)C)C(C)C)cc1 | 3
Cn1c(=O)c2c(O)c([N+](=O)[O-])c(=O)n(C)c2n(C)c1=O | 17

Nothing new here: three of the compounds above.
SMILES | Biofilm kill mix
CN1CCN(c2ccccc2NC(=O)c2ccc(-c3cccc([N+](=O)[O-])c3)o2)CC1 | 21
CCN(CC)S(=O)(=O)c1ccc(/C=C/C(=O)OCC(=O)N(C(C)C)C(C)C)cc1 | 3
Cn1c(=O)c2c(O)c([N+](=O)[O-])c(=O)n(C)c2n(C)c1=O | 17
